High-throughput results: PubChem BioAssay, several laboratories
Arbovirus anti: antivirals against arbovirus infection, primary screen, cell-based, full library, 10K replicate subset. arbovirus infection cell-based antiviral screen. inhibition, % at 10 µM. 200,000 compounds, 0.37% hits;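 active = inhibition from about 30%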;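 also: bluetongue infection of BSR cells; cell survival read as ATP light after 72 h; 0% = infected wells without compound and 100% = uninfected wells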
Mtb growth: M. tuberculosis H37Rv growth inhibitors, H37Rv strain (AID 1626) | M. tuberculosis H37Rv growth inhibition; higher % means a stronger effect | one-dose inhibition, % at 10 µM; IC50 in µM for titrated hits | 220,000 compounds, 0.95% hits;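 active = confirmed in a dose series; inconclusive = inhibition above 80% but not taken into the dose series; inactive = below 80% or under 30% at every dose of the series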;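 also: bacteria incubated seven days before Alamar blue readout; 0% = bacteria only wells and 100% = bacteria with antibiotic wells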
RecA intein inh: Mtb RecA intein splicing inhibitors, primary screen, biochemical, fluorescence, HTS. Protein RecA (Mycobacterium tuberculosis (strain ATCC 25618 / H37Rv)), P9WHJ3. cell-free RecA intein splicing. inhibition, %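 (about 9 µM by stock and volumes)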. 290,000 compounds, 0.75% hits; in the data active = inhibition above about 30%; inconclusive = no clear call, values can overlap the other calls;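 also: 0% = vehicle wells and 100% = reference inhibitor control wells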
Target sequence (P9WHJ3 whole entry, looked up): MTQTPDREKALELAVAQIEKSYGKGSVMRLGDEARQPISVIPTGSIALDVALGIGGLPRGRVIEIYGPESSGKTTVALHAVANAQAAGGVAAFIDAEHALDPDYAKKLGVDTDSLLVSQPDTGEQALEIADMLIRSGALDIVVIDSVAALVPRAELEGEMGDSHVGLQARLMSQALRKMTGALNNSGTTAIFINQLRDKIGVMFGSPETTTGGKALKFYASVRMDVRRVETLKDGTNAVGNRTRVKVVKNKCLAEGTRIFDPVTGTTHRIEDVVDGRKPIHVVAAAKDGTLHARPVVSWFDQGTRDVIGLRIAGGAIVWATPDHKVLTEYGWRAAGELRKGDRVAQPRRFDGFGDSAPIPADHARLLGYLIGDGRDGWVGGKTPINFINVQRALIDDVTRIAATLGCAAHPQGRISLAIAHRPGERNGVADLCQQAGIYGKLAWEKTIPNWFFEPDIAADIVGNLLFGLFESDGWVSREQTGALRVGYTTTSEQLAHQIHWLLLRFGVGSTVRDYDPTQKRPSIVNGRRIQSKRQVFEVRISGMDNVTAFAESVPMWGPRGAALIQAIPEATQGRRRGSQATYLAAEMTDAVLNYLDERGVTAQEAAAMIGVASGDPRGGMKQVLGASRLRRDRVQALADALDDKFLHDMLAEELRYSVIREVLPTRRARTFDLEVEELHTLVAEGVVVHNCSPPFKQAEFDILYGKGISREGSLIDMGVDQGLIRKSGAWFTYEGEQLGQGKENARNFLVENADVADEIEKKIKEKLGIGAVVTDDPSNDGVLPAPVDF
YopH PTP inh: YopH tyrosine phosphatase inhibitors, primary screen, biochemical, fluorescence Ex485/Em525; YopH tyrosine phosphatase [Yersinia enterocolitica]; inhibition, %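 (about 10 µM by stock and volumes)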; 140,000 compounds, 0.16% hits; AID 898, 2007;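 active = inhibition of 50% or more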;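 also: controls were vehicle for no effect and minimum signal wells for full effect; inactives centre near -20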
Mtb betalactam: beta-lactam sensitization of Mtb H37Rv, H37Rv. M. tuberculosis H37Rv growth with meropenem, percent inhibition; hits of this screen are not shown here. 330,000 compounds, 0.27% hits. inhibition, % at 25 µM;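 active = about 74% or more and at least 40 points above the plate without the antibiotic, then above 30% in a dose series; inconclusive = first-round hits that could not be retested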;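 also: growth measured after seven days incubation then overnight dye step; 0% = bacteria only wells and 100% = bacteria with antibiotic; twin plates without the antibiotic show which effects depend on it; some results filed as inactive read as strong as hits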
Arbovirus anti repeat: further read-out of Arbovirus anti, marked with its call; inhibition, %; measured here: 10K subset replicate screen; many hits read low in the repeat;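 first of two repeat runs on a subset; 0% = infected and 100% = uninfected wells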
* hit, by the source's call; u = inconclusive; x = not tested or not shown. This is a subset; the hit share may differ from the screen's.

SMILES | Arbovirus anti | Mtb growth | RecA intein inh | YopH PTP inh | Mtb betalactam | others
CCn1cc(C(=O)NCC(OC)OC)c(=O)c2cc(S(=O)(=O)N(C)C3CCCCC3)ccc21 | x | x | -2.1 | x | -10
CCc1c(C)nc2ncnn2c1N1CCCC(C(=O)NCc2ccco2)C1 (centres undefined) | 1 | 2% | -2.3 | 14 | 20
COc1ccc(/C=N/NC(=O)c2ccccc2Cl)cc1CSc1nc2ccccc2s1 | -16 | 3% | 7.3 | -94 | -10
Cc1cc([N+](=O)[O-])ccc1NC(=S)NC1CCCC1 | x | x | -0.1 | x | -4
Cc1ccc(OCCC(=O)OCc2csc(CC(=O)Nc3ccccc3C)n2)cc1 | x | x | 1.9 | x | -14
Cc1cc(C)cc(N(CCC(=O)Nc2nnc(C3CC3)s2)S(=O)(=O)c2ccc(Cl)cc2)c1 | -14 | -2% | 1.1 | -18 | -4
Nc1ccccc1NC1=CC(=O)CC(c2ccco2)C1 (centres undefined) | -3 | -3% | 0.0 | -25 | -17
CCOC(=O)C1C(c2cc(OC)c(OC)c(OC)c2)NC(=S)NC1(O)C(F)(F)F (centres undefined) | 10 | -10% | -0.4 | -22 | -8
CC(C)(C)C(=O)O/N=C1\CCS(=O)(=O)c2sccc21 | -1 | 0% | -0.1 | x | 4
Cc1[nH]nc(-c2ccc(OCc3cnn(-c4ccccc4)c3)cc2O)c1Oc1ccc(F)cc1 | -3 | -2% | 7.4 | -26 | -1
CCOc1c2ccc(C(=O)N[C@H](C)C3CCCCC3)cc2nn1CC | 4 | -3% | -0.1 | -51 | 8
Nc1c(Cl)cc(Cl)cc1C(=O)OCC(=O)N1CCOCC1 | 19 | -1% | -2.4 | x | 3
CSc1nccc(-c2nn(-c3ccc(C)cc3)ccc2=O)n1 | -25 | -4% | -2.5 | -24 | 0
CC(=O)c1ccc(OCCCC(=O)NCCc2ccccc2)cc1 | x | x | 1.0 | x | -3
CC(=O)N1CCN(C(=O)c2cc(-c3ccc(C)o3)nc3ccccc23)CC1 | x | x | -51 | x | -9
Cc1ccc(Cn2cc(CCC(=O)O)c3ccccc32)cc1 | x | x | 1.3 | x | 8
CCc1ccc(C)c(OC(=O)c2cncc(Br)c2)c1 | x | x | 3.5 | x | 11
NC(=O)CC1C(=O)N(c2ccc(Cl)cc2)C(=S)N1NC(=O)c1cccc(F)c1 (centres undefined) | x | x | 2.8 | x | 3
COC(=O)c1ccc(N2C(=O)CC(Sc3n[nH]c(C)n3)C2=O)cc1 (centres undefined) | 2 | -3% | 6.3 | -15 | -6 | Arbovirus anti repeat=-1
CC1CC(Nc2ccccc2N)=CC(=O)O1 (centres undefined) | -2 | -9% | -2.4 | -6 | -16

The last 4 compounds of the part above lead into the next.
SMILES | Arbovirus anti | Mtb growth | RecA intein inh | YopH PTP inh | Mtb betalactam | others
CCc1ccc(C)c(OC(=O)c2cncc(Br)c2)c1 | x | x | 3.5 | x | 11
NC(=O)CC1C(=O)N(c2ccc(Cl)cc2)C(=S)N1NC(=O)c1cccc(F)c1 (centres undefined) | x | x | 2.8 | x | 3
COC(=O)c1ccc(N2C(=O)CC(Sc3n[nH]c(C)n3)C2=O)cc1 (centres undefined) | 2 | -3% | 6.3 | -15 | -6 | Arbovirus anti repeat=-1
CC1CC(Nc2ccccc2N)=CC(=O)O1 (centres undefined) | -2 | -9% | -2.4 | -6 | -16
CCOc1ccccc1C1C(C#N)=C(N)Oc2cc(C)n(Cc3ccccn3)c(=O)c21 (centres undefined) | -5 | -8% | 2.2 | -27 | -1
CCN(CC)CCn1c2c(c(SCC(=O)Nc3ccc(F)c(F)c3)nc1=O)CCC2 | x | x | 2.2 | x | -11
O=c1[nH][nH]c(-c2ccccc2)c1C=Nc1ccccc1Cl | 0 | -2% | 22 | -30 | -4
COc1cc(/C=N\NC(=O)c2ccc(-c3ccccc3)cc2)cc(Br)c1O | x | x | 15 | x | 3
Cc1ccc(NC(=O)CSc2nc(=O)n(CCN3CCOCC3)c3c2CCCC3)cc1 | x | x | -3.8 | x | 0
COC(=O)c1cc(OC)c(OC)cc1NC(=O)CC1CCCCC1 | 11 | 2% | 7.1 | -5 | 22
Cc1cccc(NS(=O)(=O)c2cccs2)c1 | 4 | -5% | -0.2 | 0 | -2
CS(=O)(=O)c1ccc(-n2c(=O)n(Cc3ccccc3)c(=O)c3[nH]cnc32)cc1 | x | x | -4.3 | x | -7
N#Cc1c(-c2cccnc2)c2c([nH]c1=S)CCCC2 | -8 | 11% | 0.9 | -38 | -2
C=CCN1C(=O)NC(=O)C(CCc2ccncc2)(CCc2ccncc2)C1=O | 5 | -10% | 0.4 | x | 4
Cc1cccc(NC(=S)Nc2cccc3ccccc23)c1 | x | x | 5.8 | x | -5
CCc1nnc(NC(=O)c2cc(S(=O)(=O)N(CC)CC)ccc2Cl)s1 | 7 | -14% | 0.0 | -42 | -10
O=C(NCCNc1ccc2ccccc2c1)c1cccn2c(=O)c3sccc3nc12 | -7 | 5% | -1.0 | x | 15
O=C(O)CC1(CC(=O)Nc2ccc(Oc3cccc(C(F)(F)F)c3)nc2)CCCC1 | x | 0% | 0.5 | x | 1
COc1ccc(NC(=O)c2ccco2)cc1NC(=O)c1c(OC)cccc1OC | x | x | -2.2 | x | -10
Cc1ccc(CN2CCNC(=O)C2CC(=O)NCc2cc(C)n(C)n2)cc1 (centres undefined) | x | x | -1.1 | x | -2
CCOc1ccc(-c2cccc(NS(=O)(=O)c3ccc([N+](=O)[O-])cc3)c2)nn1 | x | x | 2.5 | x | -2
CS(=O)(=O)N(CC(=O)NCc1cccnc1)C1CCCCC1 | 4 | 8% | 0.1 | x | -10
COc1ccc(OCC(=O)N/N=C2/C=C(C)CC2)cc1 | -1 | u | -2.0 | x | -6
O=C1c2cccnc2C(=O)N1c1ccccc1-c1ccccc1 | 6 | -3% | x | 1 | u
Cc1cccc(/C=N/NC(=O)CC(=O)NCCc2ccccc2)c1 | x | x | 1.4 | x | 8
CN1CCN(C(=O)c2cc(=O)c3cc(Cl)ccc3o2)CC1 | x | x | 1.3 | x | -5
COc1ccc(S(=O)(=O)N2CC(C)OC(C)C2)cc1C(=O)N1CCCCC1 (centres undefined) | x | x | 0.4 | x | -3
CCC(Sc1nc2ccsc2c(=O)n1Cc1ccc(C(=O)O)cc1)C(=O)Nc1ccc(C)c(Cl)c1 (centres undefined) | x | x | -0.2 | x | 3
Oc1c(Br)cc(C2N=C(c3ccccc3)NO2)cc1Br (centres undefined) | 33* | 11% | -2.0 | -4 | -8
Cc1ccc2c(c1)-c1c(ssc1=S)C(C)(C)N2C(=O)c1ccco1 | -10 | 1% | 5.3 | 40 | 11
CC(C)(C)C(=O)c1cn(CC(=O)NCc2ccco2)c2ccccc12 | 8 | -5% | 0.1 | x | -4
CCc1ccc(N(C(=O)CCC(=O)Nc2cc(C)on2)C(C(=O)NC(C)(C)C)c2ccc(OC)cc2)cc1 (centres undefined) | x | x | 1.1 | x | 19
C=Cn1ccnc1P(=S)(c1ccccc1)c1nccn1C=C | 19 | -6% | 1.7 | x | -1
CCOC(=O)/C(N=Nc1sc(C(=O)OC)c(C)c1C(=O)OCC)=C(\O)CCl | -9 | 38% | 12 | -11 | 11
CCN1CCN(C(=O)C2CCN(Cc3nc(-c4cccc(Cl)c4)oc3C)CC2)CC1 | 6 | -8% | 0.6 | -45 | u | Arbovirus anti repeat=-5
COc1cc(/C=C(/C#N)C(=O)NCCCc2ccccc2)ccc1OCC(=O)O | x | x | -2.5 | x | 0
COc1cc(CC(NC(C)=O)C(=O)NC2CCN(C(=O)c3cc(OC)c(OC)c(OC)c3)CC2)cc(OC)c1 (centres undefined) | 3 | -8% | 1.6 | x | 17
CC1CCCN(Cc2cccc(Oc3ccccc3)c2)C1 (centres undefined) | 5 | -9% | -2.1 | 7 | -6
COc1ccc(OC)c(/C=N/N2CCN(c3ccc(Cl)cc3)CC2)c1 | x | x | 0.3 | x | -4
O=C(COC(=O)CCSc1ccc(Cl)cc1)NCCc1ccccc1 | -14 | -9% | 4.1 | -10 | 1
CCn1cc(CNC(=O)c2cc(-c3ccccc3OC)nc3ccccc23)c(C)n1 | 1 | -6% | -0.1 | -26 | -5
CCS(=O)(=O)c1ccc2oc(Nc3cc(C)cc(C)c3)nc2c1 | -15 | 22% | x | 3 | 36
Cc1ccc(S(=O)(=O)N(C)CC(O)Cn2c3ccccc3c3ccccc32)cc1 (centres undefined) | -48 | 5% | 14 | 3 | -13
Cc1ccccc1C(=O)Nc1cccc(NC(=S)NC(=O)c2cccs2)c1 | 10 | -8% | -1.1 | -22 | 2

In the list so far, these have a nitro group on carbon:
SMILES | Arbovirus anti | Mtb growth | RecA intein inh | YopH PTP inh | Mtb betalactam | others
Cc1cc([N+](=O)[O-])ccc1NC(=S)NC1CCCC1 | x | x | -0.1 | x | -4
CCOc1ccc(-c2cccc(NS(=O)(=O)c3ccc([N+](=O)[O-])cc3)c2)nn1 | x | x | 2.5 | x | -2

(more compounds)
SMILES | Arbovirus anti | Mtb growth | RecA intein inh | YopH PTP inh | Mtb betalactam | others
COC(=O)c1ccccc1NC(=O)C1CCCN(S(=O)(=O)c2ccccc2)C1 (centres undefined) | 11 | -19% | 0.8 | -17 | -18
COc1ccc(-n2nc(C(=O)NCC(=O)N3CCCC3)c3ccccc3c2=O)c(OC)c1 | x | x | -0.6 | x | -2
CCOc1ccc(OCCC(=O)OCC(=O)Nc2cc(S(=O)(=O)N3CCOCC3)ccc2C)cc1 | x | x | -2.8 | x | -3
Oc1ccccc1N=N/C(=N/Nc1ccccc1O)c1ccccc1 | x | x | -1.6 | x | 24
Cc1cc(C(F)F)n2nc(C(=O)Nc3ccccc3Br)nc2n1 | 5 | 8% | -1.7 | -14 | 7
COc1cc(C(=O)O)nc2ccc([N+](=O)[O-])cc12 | 4 | -4% | -5.1 | x | -6
O=C(C1CCC1)N1CCc2cc(S(=O)(=O)NCCN3CCN(c4ccccc4F)CC3)ccc21 | -15 | x | 4.5 | -8 | 3
Cc1cccc(Nc2ncc3c(n2)CC(C)CC3=O)c1 (centres undefined) | -7 | -8% | 2.1 | -37 | -1
CCOC(=O)c1csc(NC(=O)c2cc(=O)c3ccccc3o2)n1 | 1 | 1% | 0.6 | x | 3
CC(CNC(=O)C1CCCCC1C(=O)O)c1ccccc1 (centres undefined) | -1 | 2% | 2.4 | -21 | -2
O=C(CSc1nnc(NC2CCCCC2)s1)Nc1ccc(N2CCOCC2)cc1 | -1 | 2% | -2.0 | -4 | -6
Cc1ccc(NC(=O)CSc2nc(-c3ccco3)cc(C(F)(F)F)n2)cc1C | -17 | 3% | x | -10 | -2
O=C(NCc1ccc2c(c1)OCO2)c1cc(-c2ccccc2)c(N2CCOCC2)s1 | x | x | -2.7 | x | 6
CC(C)Oc1ccc(C(=O)NCCNC(=O)c2ccco2)cc1 | x | x | 4.4 | x | 5
CC1CCN(CC(=O)Nc2ccc(S(=O)(=O)N3CCCC(C)C3)cc2)CC1 (centres undefined) | x | x | -0.2 | x | -4
COc1ccc(N=c2oc3c(OC)cccc3cc2C(=O)NCc2ccco2)c(OC)c1 | -26 | -5% | 2.3 | -28 | -1
O=C(NC1CCCC1)C(c1ccco1)N(C(=O)c1ccco1)c1ccc(F)cc1 (centres undefined) | x | x | 3.5 | x | -3
CCOC(=O)c1[nH]c2ccccc2c1NC(=O)C1CCCC1 | x | 5% | 1.3 | x | 1
COc1ccccc1N1CCN(C(=O)N2CCOCC2)CC1 | 0 | 6% | x | -34 | -15 | Arbovirus anti repeat=-2
CCc1ccc(-n2c(SCC(=O)c3ccc4c(c3)NC(=O)CO4)nc3ccccc3c2=O)cc1 | -5 | 1% | -1.3 | x | 6
CCOc1ccccc1/C=c1\sc2ncnn2c1=O | -6 | -6% | -1.2 | -41 | 12
CC(=O)Nc1ccc(S(=O)(=O)N2CCN(C(C)CCc3ccccc3)CC2)cc1 (centres undefined) | 23 | -10% | 0.9 | -7 | -6
CN(C)CCN(Cc1ccccc1)S(=O)(=O)c1csc(C(N)=O)c1 | x | x | -4.3 | x | 3
COc1ccc(CN2CCc3ccccc3C2)c(OC)c1 | x | -6% | 0.2 | x | -1
Cc1cc(=O)oc2cc(NC(=O)C(C)Oc3ccc(F)cc3)ccc12 (centres undefined) | x | x | -2.3 | x | -6
CC1CCCC(NC(=O)c2ccc3c(c2)OCO3)C1C (centres undefined) | x | x | -0.3 | x | 5
O=C(COc1ccccc1Cl)NC1CC1 | x | x | -0.2 | x | 4
Cc1nc2ncnn2c(N2CCN(C(=O)c3cccc(F)c3)CC2)c1Cc1ccccc1 | 7 | -8% | 0.8 | 1 | -13
